H5N1 CPE: MDCK cell protection from H5N1 avian flu; inhibition, % at 50 µM; 96,000 compounds, 0.07% hits; cytopathic effect, luminescence, 72 h; hits give high values; no value below 0 was filed and about half of the inactive calls have no number; reference of the scale not given here; AID 740; in the data active = inhibition above about 25%
Active calls of the source: *; i = inactive.

SMILES | H5N1 CPE
CCOC(=O)N1CCN(C(c2ccc(F)cc2)c2sc3nc(C)nn3c2O)CC1 (stereo not drawn) | 1.2
CCCCCCn1c(CN2CCN(Cc3ccccc3)CC2)nc2c1c(=O)n(C)c(=O)n2C | 3.2
Cc1nn(Cc2n[nH]c(=S)n2Cc2ccccc2)c(C)c1Cl | 1.6
C=CCn1c2ccccc2c2nnc(SC(CC)C(=O)Nc3nc(C)c(C(=O)OCC)s3)nc21 (stereo not drawn) | 3.0
Clc1ccc(Sc2oc(/C=N/n3cnnc3)cc2Br)cc1 | 1.4
Cc1cccc(NC(=O)c2cc(S(=O)(=O)NCc3ccco3)ccc2F)c1C | 1.3
COc1ccc(-n2c(C)cc(SC)c(C(C)=O)c2=S)cc1 | 0.1
O=C(CCCOc1ccc(Cl)cc1Cl)N/N=C\C1CCCCC1 | i
CC(C)(C)C(=O)NC1=NCCS1 | i
Cc1nn(-c2ccccc2)c2c1C1(C(=O)Nc3ccccc31)N1C(=N2)Sc2ccccc21 (stereo not drawn) | i
CNC(=O)/C(=C\C=C\c1ccccc1)NC(=O)c1ccc([N+](=O)[O-])cc1 | i
Cc1onc(-c2c(F)cccc2Cl)c1C(=O)NCc1ccco1 | 0.1

Entries listed so far containing a halogen (six):
SMILES | H5N1 CPE
CCOC(=O)N1CCN(C(c2ccc(F)cc2)c2sc3nc(C)nn3c2O)CC1 (stereo not drawn) | 1.2
Cc1nn(Cc2n[nH]c(=S)n2Cc2ccccc2)c(C)c1Cl | 1.6
Clc1ccc(Sc2oc(/C=N/n3cnnc3)cc2Br)cc1 | 1.4
Cc1cccc(NC(=O)c2cc(S(=O)(=O)NCc3ccco3)ccc2F)c1C | 1.3
O=C(CCCOc1ccc(Cl)cc1Cl)N/N=C\C1CCCCC1 | i
Cc1onc(-c2c(F)cccc2Cl)c1C(=O)NCc1ccco1 | 0.1

(further entries)
SMILES | H5N1 CPE
COc1ccc(S(=O)(=O)Nc2ccc(S(=O)(=O)N3CCCCC3)cc2)cc1 | 1.0
CNC(=S)NNC(=O)c1cccn(Cc2ccc(Cl)c(Cl)c2)c1=O | 2.9
CC1(C)Cc2c(ccc3ccccc23)-c2nnc(-c3cccnc3)n21 | 0.0
COc1ccc(Br)cc1CNC(=O)CCN1C(=O)COc2ccccc21 | i
CS(=O)(=O)N1CCCC(C(=O)N2CCc3ccccc3C2)C1 (stereo not drawn) | 1.1
N#CC(c1ccc(F)cc1)c1ccc(C(=O)c2ccc(F)cc2)cc1 (stereo not drawn) | i
CSc1cccc(-n2c(C)cc(C(N)=O)c2C)c1 | i
Cc1ccc(CNc2ccc(Cl)cc2[N+](=O)[O-])cc1 | i
COc1ccc(OC)c(C(C(=O)NCc2ccco2)N(C(=O)Cn2nnc3ccccc32)C2CC2)c1 (stereo not drawn) | i
Oc1ccc(/C=N/Nc2cc(N3CCCC3)nc(N3CCCC3)n2)cc1 | i
S=c1nc(C2CCCCC2)[nH][nH]1 | 0.8
COc1cc(NC(=O)CSc2nc3ccccc3cc2Cc2ccccc2)cc(OC)c1 | 0.7
CCCCOC(=O)Sc1nc2ccccc2o1 | i
Oc1ccccc1/C=N/Nc1cccc2cccnc12 | 0.9
Cc1cc(S(=O)(=O)Nc2ccccc2C)ccc1F | 1.2
CC1(C)OC(=O)N(c2cccnc2)C1(C)O (stereo not drawn) | i
CCC(=O)Nc1nc(C)c(C(=O)N2CCCCC2)s1 | 0.2
Cc1ccc(NC(=O)CN2CCN(CCN=CC3=C(O)CC(C)(C)CC3=O)CC2)cc1 | 0.8
Cc1ccc(NC(=O)CN2CCC3(O)CCCCC3C2c2ccc3c(c2)OCO3)c(C)c1 (stereo not drawn) | i
O=C(/C=C/Sc1ncn[nH]1)c1ccc(Cl)cc1 | i
CCc1ccccc1NC(=O)CSc1nc2ccccc2n1CC(=O)N(C)C | 0.7
Cc1cc(C(=O)COC(=O)C2COc3ccccc3O2)c(C)n1CC1CCCO1 (stereo not drawn) | 0.3
O=C(O)C1CCC(=O)N1Cc1ccccc1Cl (stereo not drawn) | 0.4
CC(C)CCNC(=O)NC(=O)COc1ccccc1C#N | i
Cc1ccsc1C(=O)OCC(=O)Nc1sccc1C(N)=O | 1.1
COc1cc(C(=O)N2CCN(Cc3ccccc3C(F)(F)F)CC2)cc(OC)c1OC | i
CCOc1cc(CO)ccc1OCC(=O)N1CCCCC1 | 0.6
CC1CCCN(c2nc3c(c(=O)[nH]c(=O)n3C)n2Cc2ccccc2Cl)C1 (stereo not drawn) | 0.9
COc1ccc(NCc2nnc(SCC(=O)N3CCCc4ccccc43)o2)cc1 | i
CC(C)NC(=O)CN1C(=O)NC(CCc2ccccc2)C1=O (stereo not drawn) | i
CCC(=O)N1c2ccccc2NC2=C(C(=O)CCC2)C1c1ccc(N(C)C)cc1 (stereo not drawn) | i
O=C(NCCCn1ccnc1)c1cccnc1 | 0.2
COCCNC(=O)c1nn(-c2cc(OC)cc(OC)c2)c(=O)c2ccccc12 | i
CC(C)(C)Cc1nc2ccccc2n1CCc1ccccc1 | 1.7
Clc1ccc(Cn2c(-c3cccnc3Cl)nc3ccccc32)c(Cl)c1 | i
COc1ccc(-c2cc(=O)[nH]c(NCc3ccccc3)n2)cc1 | 0.2

Seven structures from above, ordered by heavy-atom count, rising:
SMILES | H5N1 CPE
Cc1onc(-c2c(F)cccc2Cl)c1C(=O)NCc1ccco1 | 0.1
CNC(=S)NNC(=O)c1cccn(Cc2ccc(Cl)c(Cl)c2)c1=O | 2.9
Clc1ccc(Cn2c(-c3cccnc3Cl)nc3ccccc32)c(Cl)c1 | i
CNC(=O)/C(=C\C=C\c1ccccc1)NC(=O)c1ccc([N+](=O)[O-])cc1 | i
COc1ccc(NCc2nnc(SCC(=O)N3CCCc4ccccc43)o2)cc1 | i
Cc1ccc(NC(=O)CN2CCC3(O)CCCCC3C2c2ccc3c(c2)OCO3)c(C)c1 (stereo not drawn) | i
C=CCn1c2ccccc2c2nnc(SC(CC)C(=O)Nc3nc(C)c(C(=O)OCC)s3)nc21 (stereo not drawn) | 3.0

New compounds follow.
SMILES | H5N1 CPE
CCCCn1ccc(=O)c2c(C(F)(F)F)nccc21 | 1.7
O=C(Oc1ccc2c(=O)c(Oc3ccc4ccccc4c3)coc2c1)c1ccco1 | i
CC(C)(C)c1ccc(C(=O)NCCC(=O)N2CCN(c3ncccn3)CC2)cc1 | 0.4
CCCCSc1nnc2c(n1)OC(C(=O)c1ccccc1)Nc1ccccc1-2 (stereo not drawn) | 1.2
CCCCn1c(=O)c(C(=O)c2ccccc2)nc2ccccc21 | 0.0
CC(C)C(OC(=O)c1nsc(Cl)c1Cl)C(=O)NCc1ccc2c(c1)OCO2 (stereo not drawn) | 0.1
CCOc1ccc(Nc2cc(=O)n(C)c(=O)n2C)cc1 | 0.3
Cc1ccc(S(=O)(=O)NC2CCCc3ccccc32)cc1C (stereo not drawn) | i
Clc1ccc(-c2nc3ccccn3c2CN2CCOCC2)cc1 | i
COc1ccc(N2CCN(C(=N)/C(C(C)=O)=C(\C)O)CC2)cc1 | i
CSC(=NNC(=O)c1ccc(O)cc1)SC | 1.6
CCN1C(=O)C(C)S/C1=N\S(=O)(=O)c1ccc(Cl)s1 (stereo not drawn) | 0.3
CC(C)NC(=O)C1(c2ccccc2)CCOCC1 | i
Cc1cccc(NC(=O)CSc2nnc(-c3ccccc3C)o2)c1 | i
Cn1c(=O)c2c(ncn2CCCNC2=CC(C)(C)CC(=O)C2)n(C)c1=O | 1.4
CCOc1cc(C2Nc3ccccc3C(=O)N2c2ccccc2OC)ccc1O (stereo not drawn) | i
Cc1sc(NC(=O)CN2CCOCC2)c(C(=O)c2ccccc2)c1C | 1.4
N#CC1(P(=O)(c2ccccc2)c2ccccc2)CC1 | 0.9
CCOC(=O)C1CCCN(C2CC(=O)N(c3ccc(C)c(C)c3)C2=O)C1 (stereo not drawn) | i
CCCCn1c(-c2csc3c2CCCC3)n[nH]c1=S | i
CCOC(=O)C1=C(C)NC(=O)NC1c1ccc(OC(C)C(=O)O)c(OC)c1 (stereo not drawn) | 0.9
CC1CCCN(S(=O)(=O)Cc2ccc(Cl)cc2)C1 (stereo not drawn) | 0.2
CCOC(=O)C1(Cc2ccc(O)cc2)NC(c2ccccc2F)C2C(=O)N(C)C(=O)C21 (stereo not drawn) | 1.8
CS(=O)(=O)c1ncc(Cl)c(C(=O)Nc2ccc(N3CCOCC3)cc2)n1 | i
Cc1ccc(NC(=O)CSc2nccc(=O)[nH]2)c(S(=O)(=O)N2CCOCC2)c1 | 0.1
COc1ccc(C(=O)CSc2nc3ccccc3n2CC(=O)NC(C)(C)C)cc1 | i
O=C(Oc1ccc(-c2cn3c(n2)SCC3)cc1)c1ccccc1 | i
CC1=C(C(N)=O)C(c2ccc(Cl)cc2)NC(=O)N1 (stereo not drawn) | i
C=CCn1nnnc1SCC(=O)Nc1ccccc1C(=O)OC | 0.2
O=C(NCc1cccs1)C1CCN(S(=O)(=O)c2ccc3c(c2)OCCO3)CC1 | 0.4
c1coc(CNc2nc(N3CCCCC3)nc3ccccc23)c1 | 2.6
CN(C)CCNc1nc2c(c(=O)[nH]c(=O)n2C)n1CC(O)COc1ccc(Cl)cc1Cl (stereo not drawn) | i
COc1ccc(OC)c(C2C3=C(N=C4SCC(=O)N42)c2ccccc2CC3)c1 (stereo not drawn) | i
CCOc1nc(NCCC2=CCCCC2)nc(N2CCOCC2)n1 | i
O=C(O)C1C2C=CC(C2)C1C(=O)OCC1CCCO1 (stereo not drawn) | 0.6
CC(C)CC(=O)c1c[nH]c(C(=O)NCCCN2CCOCC2)c1 | 0.7
COc1ccc(S(=O)(=O)Nc2nnc(C(C)(C)C)s2)cc1 | 0.8
CCc1ccc(-c2nc(CSCC(=O)NCCCN3CCCC3=O)c(C)o2)cc1 | 1.2
COc1ccc(CC(=O)O/N=C(\N)Cc2ccc(OC)c(OC)c2)cc1 | i
COc1ccc(N(CC(=O)NC2CCCC2)C(=O)c2ccc(N3CCCCC3)nc2)cc1 | i
COc1ccc(S(=O)(=O)N(C)CC(=O)Nc2ccc(C(F)(F)F)cc2)cc1Cl | i
O=C1Nc2ncccc2OC1CCCl (stereo not drawn) | i
O=c1/c(=C\c2cccn2-c2ccccc2)sc2nc3ccccc3n12 | 0.1
Cc1sc2ncnc(NCc3ccco3)c2c1C | 1.9
CCOC(=O)n1c(=O)n(Cc2ccccc2Cl)c2ccccc21 | i
C=CCn1c(SCC(=O)NC(=O)NCc2ccco2)nc2sc(CC)cc2c1=O | i
CCCNC(=O)C1CN(S(=O)(=O)c2ccccc2)CCN1S(=O)(=O)c1ccccc1 (stereo not drawn) | 0.7
CCOc1ccc(-n2c(O)c(C=NCCCn3ccnc3)c(=O)[nH]c2=O)cc1 | i

Filtered by structure: those above with bromine (two)
SMILES | H5N1 CPE
Clc1ccc(Sc2oc(/C=N/n3cnnc3)cc2Br)cc1 | 1.4
COc1ccc(Br)cc1CNC(=O)CCN1C(=O)COc2ccccc21 | i

Carrying on.
SMILES | H5N1 CPE
O=C(O)c1cc2cc(Cl)ccc2oc1=O | 0.9
O=C(C1CCCO1)N1CCN(S(=O)(=O)c2cccc3nsnc23)CC1 (stereo not drawn) | 1.2
CCc1nc2c(c(SC)nn2-c2ccccc2)c(N)c1C(=O)OC | i
CC(NC(=O)c1ccc(=O)oc1)c1ccccc1 (stereo not drawn) | 0.4
CC(C)CNC(=S)NNC(=O)c1csc2ccccc12 | 0.8
Cc1c(NC(=O)c2c(F)c(F)c(F)c(F)c2F)c(=O)n(-c2ccccc2)n1C | 0.9
CN(C)c1ccc(/C=N/NC(=O)C(O)(c2ccccc2)c2ccccc2)o1 | 0.8
Cc1ccc(NC(=O)CC2NCCNC2=O)cc1 (stereo not drawn) | i
CCc1ccc2c(c1)c1nc(C)sc1n2CC | i
CCn1c(=O)c(=O)[nH]c2cc(C(=O)N3CCN(c4ccccc4F)CC3)ccc21 | 3.3
CC(=O)Nc1sc(N)nc1-c1ccccc1 | i
O=C(C1CCN(S(=O)(=O)c2ccc3c(c2)OCCO3)CC1)N1CCc2ccccc21 | i
O=C(CSc1nnc(CNC(=O)c2ccccc2F)o1)NCC1CCCO1 (stereo not drawn) | 1.7
Cc1cc(=O)[nH]c(SCC(=O)N2CCC(C(N)=O)CC2)n1 | 1.4
OCCOc1ccc(C2=NCCO2)cc1 | 0.1
CO/N=C(/CNC(=O)c1ccc(Cl)cc1Cl)c1ccc(Cl)cc1 | i
Cc1onc(-c2ccccc2Cl)c1C(=O)Nc1sc2c(c1C#N)CCC2 | 9.0
Cc1cc(C)n(Cc2ccc(Cl)c(Cl)c2)c(=O)c1S(=O)(=O)c1ccccc1 | 0.9
c1ccc(CSc2nnc(-c3ccco3)n2Cc2ccccc2)cc1 | 0.9
O=C(c1ccccc1-c1ccccc1)N1CCOCC1 | 1.1
S=c1[nH]ncn1/N=C/c1ccc(Br)cc1 | i
O=C(c1ccc2nc(N3CCOCC3)sc2c1)N1CCC(Cc2ccccc2)CC1 | 0.9
Cc1ccccc1CSCC(=O)N/N=C/c1cccs1 | i
Cc1nc(N2CCN(C)CC2)c2c(C)c(C(=O)Nc3ccc(F)cc3)sc2n1 | i

2 entries from above, as labelled records:
SMILES: OCCOc1ccc(C2=NCCO2)cc1
- H5N1 CPE: 0.1
SMILES: Cc1cc(=O)[nH]c(SCC(=O)N2CCC(C(N)=O)CC2)n1
- H5N1 CPE: 1.4

The listing continues:
SMILES | H5N1 CPE
CN(C)/C=C/C(=O)c1cccc(Cl)c1 | i
COc1cc(OC)c2nc(C)c3c(c2c1)N(c1ccc(O)cc1)CC3 | i
CC1=C(C(=O)OC(C)C)C(c2cccnc2)n2ncnc2N1 (stereo not drawn) | 1.0
CCC(=O)Nc1cc(C(=O)OCC(=O)c2ccccc2Cl)ccc1C | i
CC(NC(=O)C1CC1)C(c1cccs1)N1CCN(c2ccccc2)CC1 (stereo not drawn) | 0.4
Cc1cc(/C=N/NC(N)=O)c(C)c(CO)c1 | 1.5
Cn1c(C(=O)N2CCN(c3ncccn3)CC2)cc2c(=O)n(C)c3ccccc3c21 | i
N#Cc1nc(-c2ccc(Cl)cc2)oc1NCc1ccco1 | i
Cc1ccc(C(=O)NNC(=S)Nc2cccc3ccccc23)s1 | 1.1
COc1nc(OC)nc(N(C)CCO)n1 | 0.4
COc1ccc(C(=O)Cn2c(=O)c(CCC(=O)O)nn3c4ccccc4nc23)cc1OC | i
COc1ccc2c(c1OC)C(=O)OC2CC(=O)c1ccc(N(C)C)cc1 (stereo not drawn) | i
Clc1ccc(-c2nn3c(C4COc5ccccc5O4)nnc3s2)cc1 (stereo not drawn) | i

High-throughput results from PubChem BioAssay.

An excerpt; count on the stated rates, not on these rows.
